# Source: PubChem
# D2 agonist: human D2 receptor agonism in beta-arrestin assay; P14416; DiscoveRx PathHunter D2 beta-arrestin, luminescence, 90 min; 100% = 57 uM dopamine signal; activation, % (concentration not given with the values); hit rate 0.084% among 360,000; in the data active = activation above about 40%; inconclusive = about 15% to 40%; inactive = below about 15%; further: compound concentration not given in the record; the text of the record calls up to 30% inactive
# Target sequence (P14416 whole entry, looked up): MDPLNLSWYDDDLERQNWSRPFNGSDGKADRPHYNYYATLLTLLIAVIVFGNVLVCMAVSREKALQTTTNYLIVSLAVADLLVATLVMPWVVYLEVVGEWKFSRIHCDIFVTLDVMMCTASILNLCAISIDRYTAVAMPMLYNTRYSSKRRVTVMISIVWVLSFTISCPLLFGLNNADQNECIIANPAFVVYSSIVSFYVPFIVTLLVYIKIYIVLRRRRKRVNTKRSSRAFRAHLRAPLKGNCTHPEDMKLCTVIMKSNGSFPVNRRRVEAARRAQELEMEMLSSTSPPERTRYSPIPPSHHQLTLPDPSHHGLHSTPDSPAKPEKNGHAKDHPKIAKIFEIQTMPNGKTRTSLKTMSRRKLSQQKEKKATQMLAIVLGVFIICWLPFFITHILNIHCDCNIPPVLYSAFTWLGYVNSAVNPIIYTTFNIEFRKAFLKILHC
#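 DiscoveRx PathHunter D2 beta-arrestin cells (2,100/well) attached overnight, then compound-stimulated 90 min at 37 C in HBSS/10 mM HEPES/0.1% Tween-20 buffer; beta-galactosidase complementation read by luminescence after 1 h at ambient temperature. Dopamine 57 uM final (EC100) as control.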
# gsp ag: agonists of gsp mutant (McCune-Albright syndrome) | Potency, µM (doses to about 76.9 µM), for the others: at the top dose activation (cAMP increase), hits mostly activators | gsp mutant cells, cAMP HTRF, 30 min; control for the full effect not named in the record | hit rate 0.13% among 340,000; active = well fitted activation curve with a large enough effect; inconclusive = small, poorly fitted or top-dose-only effect, or another doubt; inactive = no such curve, though single readings can be large or run the other way; cell line not stated here;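 further: phosphodiesterase inhibitor Ro 20-1724 added with compounds to block cAMP breakdown; potency means the concentration at half of the fitted maximal effect; nearly all actives have a fitted effect of over 60% in size; about a fifth of the inactives were tested at one dose only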
#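 Cells stably selected in G418 were plated at 2000/well, grown 16-24 hr, then given compounds in DMSO with the PDE inhibitor […] (300 uM solution added) for 30 min at 37C; cAMP was read by HTRF.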
# D2 PAM: potentiates the human D2 dopamine receptor allosterically | P14416 | DiscoveRx D2 beta-arrestin cells, luminescence, 90 min; 100% = 57 uM dopamine signal | potentiation, % (no concentration beside the values) | hit rate 0.23% among 360,000 | AID 624464; active = potentiation of 50% or more; inconclusive = 30% to 50%; inactive = 30% or less;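 further: compound concentration not given in the record; tested on top of an EC20 dose of dopamine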
#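 PathHunter D2 cells, attached overnight at 37 deg C, received compound in DMSO plus dopamine at EC20 (50 nM final) for 90 min at 37 deg C. Beta-arrestin recruitment was read as luminescence after 1 h with detection reagent at ambient temperature.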
# Six1-Eya2 blk: inhibitors of human Six1/Eya2 interaction. AlphaScreen GST-Six1/His-Eya2 binding, biochemical; hits give low values; control for the full effect not named in the record. hit rate 0.56% among 360,000. AID 651725. activity change, % (concentration not given with the values). Q15475+O00167; in the data active = activity change below about -65%; inconclusive = about -30% to -65%; inactive = above about -30%; further: on the % scale 0 is the no-effect control and ±100 the full control effect
#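 Six1/Eya2 binding was read as AlphaScreen signal after compounds were pinned into GST-Six1 plus His-tagged Eya2 (5X stock 250/500 nM) in pH 8.0 Tris/NaCl/TCEP buffer, beads added, then incubated 1 h, 37 C, dark.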
# CtBP-E1A inh: CtBP/E1A binding inhibition; AlphaScreen GST-E1A/His-CtBP binding, 1536-well; hits give low values; control for the full effect not named in the record; activity change, % (test concentration not listed); hit rate 0.49% among 340,000; in the data active means activity change below about -65%; inconclusive means about -30% to -65%; inactive means above about -30%; further: on the % scale 0 is the no-effect control and ±100 the full control effect; compound concentration not given in the record
#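 AlphaScreen with 125 nM GST-E1A and 125 nM His-CtBP (5X stocks) in Tris pH 8.0, 300 mM NaCl, BSA, Tween 20, TCEP. Compounds preincubated 2 h at 37 deg C, then glutathione donor/nickel acceptor beads added for 1 h at 37 deg C in dark.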
# gsp antag: antagonists of gsp mutant (McCune-Albright syndrome); gsp-mutant cells, cAMP HTRF, 30 min; control for the full effect not named in the record; Potency, µM (doses to about 76.9 µM), for inactives: at the highest dose activity change, negative = inhibition, most hits filed as inhibitors; hit rate 0.4% among 340,000; AID 624288; active = falling curve of any shape with a large fitted effect; inconclusive = falling curve, mostly with a smaller effect; inactive = flat or rising curve; cell line not stated here;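 further: intracellular cAMP measured with PDE inhibitor Ro 20-1724 present during compound exposure; potency means the concentration at half of the fitted maximal effect; on the % scale 0 is the no-effect control and ±100 the full control effect; nearly all actives have a fitted effect of over 65% in size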
#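 Cells, 2000/well, grown 16–24 h in DMEM 10% FBS with 0.5 mg/ml G418, then compounds plus […] (300 uM addition stock), 30 min at 37C. cAMP read by HTRF (cAMP-d2 and anti-cAMP antibody-K in lysis buffer) after 30 min RT.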
# The depositor's hits bear a star; ? = inconclusive; · = not tested or not shown; [ ] = remark or other dose.
SMILES,D2 agonist,gsp ag,D2 PAM,Six1-Eya2 blk,CtBP-E1A inh,gsp antag
Cc1ccc2nc(N=C(N)N)nc(C)c2c1,-0.5,8%[15.4 µM],-14,?,?,8%
COCCN(C(=O)CN1CCCc2ccccc21)c1c(N)n(Cc2ccccc2)c(=O)[nH]c1=O,-15,-11%,-10,5,-3,-1%
COc1cc(/C=N/NC(=O)COc2c(C)cc([N+](=O)[O-])cc2C)ccc1OC(=O)c1ccccc1,-0.2,7%[15.4 µM],-5,-20,0,-12%
O=C(NCC1CCCO1)/C(=C\c1ccco1)NC(=O)c1ccc(Cl)cc1 (configuration not stated),-4.8,-30%,-4,7,1,8%
O=C(CNC(=O)N1CC(=O)Nc2ccccc21)NCc1ccccc1Cl,-6.0,-1%,-8,0,-6,4%
CCOC(=O)N1CCN(C(=O)c2ccc(OC)c(S(=O)(=O)N3CCOCC3)c2)CC1,9.6,-21%,-6,10,-11,4%
Cc1ccc(OCC(=O)NCc2ccco2)cc1C,-3.1,?,0,0,0,-15%
COc1ccc(-n2nnnc2SCC(=O)N2C(C)CCCC2C)c(OC)c1 (configuration not stated),-1.4,-2%,-9,-1,12,-11%
CSc1ncccc1C(=O)NCCc1ccc(Cl)cc1,3.3,-8%[15.4 µM],-17,1,25,·
Cc1ccc(S(=O)(=O)Nc2cc(=O)[nH]c3c2CCC3)cc1,-5.1,2%,-4,-8,0,-3%
CN1C(=O)/C(=C/c2ccccc2Cl)Sc2ccc(C(=O)N3CCCC3)cc21,2.1,1%,-5,-6,·,32µM*
CCN1C(=O)N[C@@H](c2cccc(C(F)(F)F)c2)[C@H](C(C)=O)[C@H]1C,0.6,-17%,0,26,1,2%
CCOC(=O)/C(=N\Nc1ncnc2ccccc12)c1ccc(C)cc1,-2.3,?,-9,-4,?,?
CC1=C(C(=O)Nc2ccccc2F)C(c2ccsc2)C2=C(CC(c3ccccc3)CC2=O)N1 (configuration not stated),15,0%,-25,-13,0,-25%
Nc1ccc(CSc2ccccc2)cc1,-3.9,?,-7,9,-11,4%
O=C(COc1ccc(/C=N/NC(=O)c2cc3ccccc3o2)cc1Br)Nc1ccccc1,-3.9,-4%,-4,-6,1,11%
COc1cccc(/C=C2\CC(C)Cc3c2nc2ccccc2c3C(=O)O)c1OC (configuration not stated),0.3,13%[15.4 µM],-5,-3,-1,0%
COc1ccc(Cl)cc1N(CC(=O)Nc1cccc(SC)c1)S(C)(=O)=O,-3.1,1%,4,0,-2,-13%
CC(NS(=O)(=O)c1ccc(Cl)cc1)C(=O)OCC(=O)Nc1ccc(N(C)C)cc1 (configuration not stated),-4.1,-7%,14,-14,3,?
c1ccc(OCc2nc(-c3ccccc3)no2)cc1,-1.6,-4%,0,51,32,10%
CCCCN(C)c1c(C)nc2ccc(C(=O)NCc3ccc(OC)cc3)cn12,4.5,·,0,-11,1,·
O=C(O)C1CCCCC1C(=O)Nc1ccccc1C(=O)N1CCN(c2ccc(F)cc2)CC1 (configuration not stated),0.4,10%,-6,7,-5,1%
O=C(CNC(=O)C1CCCCC1)OCC(=O)c1cccc(Cl)c1,-10,1%,-45,0,·,-14%
Cc1ccccc1-n1c(=O)n(CCc2ccccc2)c(=O)c2[nH]cnc21,-0.5,3%,1,2,·,-4%
Cc1ccc(S(=O)(=O)N(C)CCCC(=O)Nc2ccc(C)cc2C)cc1,2.2,6%,0,2,-4,13%
N#C/C(=C\c1ccco1)C(=O)NCc1ccccc1,-0.7,3%,-9,17,·,30%
COCCNC(=O)C(OC(=O)c1ccco1)c1ccccc1OC (configuration not stated),-2.6,-24%,-11,4,10,-4%
CCCCCCn1c(=O)n2n(c1=O)C[C@]1(OC(=O)NCC3CCCCC3)CN(S(=O)(=O)c3ccc(C)cc3)C[C@]1(O)C2,-4.1,-8%,7,-4,-2,·
CSc1ccc(/C=N/NC(=O)c2sccc2C)cc1,1.7,4%,-2,12,0,0%
CCCc1cc(=O)[nH]c2nnc(SCC(=O)Nc3ccc(C(C)=O)cc3)n12,-3.4,-8%,-9,-10,8,10%
COc1cc2cc(C(=O)N(C)Cc3ccccc3)[nH]c2cc1OC,-3.2,?,0,6,4,20%
C=CCn1c(=N)n(CC(=O)c2ccc(Cl)cc2)c2ccccc21,-4.9,-36%,-24,8,36,3%
CC(C)CCNC(=O)CN(CC1CCCO1)C(=O)CCC(=O)Nc1ccccn1 (configuration not stated),1.5,-32%[inhibitor],-4,13,6,5%
Cc1ccc(/C=C/C(=O)Nc2ncc(C)s2)o1,9.8,-24%,25,-4,-10,3%
O=C(Cc1coc2cc(O)ccc12)NNC(=O)c1ccc(Br)s1,0.0,16%,-19,-8,26,-2%
CN(C)c1ccc(NC(=O)/C=C/c2c(Cl)cccc2Cl)cc1,-1.8,-31%,-17,?,3,2%
CCc1ccc(NC(=O)CSc2nnc(CNC(=O)c3ccco3)o2)cc1,1.7,57%,-7,2,0,3%
O=C(c1ccc(Br)cc1)N(C1=NCCCCS1)c1ccccc1,0.3,-8%,-6,3,3,-1%
COc1ccc(NC(=O)N2CCC(NC(=O)c3ccco3)CC2)cc1,-2.8,0%,-17,2,0,0%
O=C(COC(=O)c1ccccc1Br)NCCc1ccc(F)cc1,-0.5,-15%,-20,6,10,4%

# Random excerpt: 2 records from the list.
SMILES,D2 agonist,gsp ag,D2 PAM,Six1-Eya2 blk,CtBP-E1A inh,gsp antag
CCc1ccc(NC(=O)CSc2nnc(CNC(=O)c3ccco3)o2)cc1,1.7,57%,-7,2,0,3%
O=C(COc1ccc(/C=N/NC(=O)c2cc3ccccc3o2)cc1Br)Nc1ccccc1,-3.9,-4%,-4,-6,1,11%

# New compounds follow.
SMILES,D2 agonist,gsp ag,D2 PAM,Six1-Eya2 blk,CtBP-E1A inh,gsp antag
CCCCNC(=O)c1c(CSc2ccc(Cl)cc2)noc1C(=O)NCCC,-0.2,·,-40,17,4,-9%
COc1ccc(Nc2nc3ccccc3n2C)cc1,-1.7,12%[15.4 µM],-6,-9,0,-10%
O=C(CN1C(=O)c2ccccc2C1=O)NCC1CCCO1 (configuration not stated),-2.7,?,0,-2,7,13%
O=C(CSc1nnc(COc2ccc(Cl)cc2)o1)NC1CC2CCC1C2 (configuration not stated),-2.8,-4%[15.4 µM],-11,10,0,-8%
Clc1ccccc1OCCn1cnc2ccccc21,0.0,-14%,-11,2,-8,-19%
O=C(COc1cc(O)c2c(=O)cc(-c3ccccc3)oc2c1)c1cccc([N+](=O)[O-])c1,-1.2,7%[15.4 µM],-22,-17,5,-2%
COc1ccc(C2=NOC(Cn3nc(C(=O)NCc4ccc(OC(F)(F)F)cc4)cc3-c3ccccc3)C2)cc1 (configuration not stated),-7.0,·,-6,0,9,-4%
COc1ccc(C(=O)NC(=S)Nc2cccc3cc(O)ccc23)cc1OC,-1.8,15%[15.4 µM],0,?,-24,?
CCOc1cc2[nH]c(=O)n(Cc3ccc(C(=O)NCCCN4CCC(C)CC4)cc3)c(=O)c2cc1OCC,-7.7,7%[15.4 µM],-6,-2,-30,12%
CC(C)C[C@H](N)C(=O)N1CCC(C(=O)N[C@H](C(=O)NCc2ccc(F)cc2)C(C)C)CC1,-3.2,·,-4,2,2,12%
CS(=O)(=O)N(CC(=O)N1CCCCC1)Cc1ccccc1,-2.9,10%,-1,0,-10,10%
CNC(=O)c1c(NC(=O)c2ccco2)sc2c1CCC2,-1.4,23%,-5,-26,-29,-30%
Cn1cc(CCC(=O)N2CCCC(N3CCN(c4ccccc4F)CC3)C2)cn1 (configuration not stated),1.3,0%,-20,3,2,9%
Cc1ccc(NC(=S)/C(=C(\[O-])c2ccc(F)cc2)[n+]2ccccc2)cc1,-2.9,25%[15.4 µM],-6,-1,3,0%
NC(=O)CSc1nnc(-c2ccccc2Br)n1-c1cccc(C(F)(F)F)c1,-4.7,-14%[15.4 µM],-7,5,3,-9%
CC(SCCc1ccccn1)C(=O)O (configuration not stated),-2.2,12%,6,2,2,18%
COc1ccc([C@@H]2CC=C(C(=O)O)[C@H](c3ccc(Cl)cc3)N2S(=O)(=O)c2ccc(C)cc2)cc1OC,2.8,-19%,-1,8,4,-14%
COc1cccc(NC(=O)c2ccco2)c1,-3.6,15%,-7,6,-3,3%
COCc1cc(/C=N\NC(=O)Cc2ccc(Cl)cc2)ccc1OC,-5.8,9%[15.4 µM],-13,4,-6,-2%
CCC(C)(C)C1CCc2[nH]nc(C(=O)NCc3ccccn3)c2C1 (configuration not stated),-1.3,25%,-8,-10,-7,-7%

# Filtered by structure, those above containing a nitro group on carbon (2)
SMILES,D2 agonist,gsp ag,D2 PAM,Six1-Eya2 blk,CtBP-E1A inh,gsp antag
COc1cc(/C=N/NC(=O)COc2c(C)cc([N+](=O)[O-])cc2C)ccc1OC(=O)c1ccccc1,-0.2,7%[15.4 µM],-5,-20,0,-12%
O=C(COc1cc(O)c2c(=O)cc(-c3ccccc3)oc2c1)c1cccc([N+](=O)[O-])c1,-1.2,7%[15.4 µM],-22,-17,5,-2%

# Remaining list, next part.
SMILES,D2 agonist,gsp ag,D2 PAM,Six1-Eya2 blk,CtBP-E1A inh,gsp antag
COc1ccc(C(CC(=O)O)N2Cc3ccccc3C2=O)cc1OC (configuration not stated),2.9,?,-3,5,7,6%
CC(=O)c1cccc(NC(=O)N2CCCC2C(=O)Nc2c(C)cccc2C)c1 (configuration not stated),-1.9,18%,6,4,4,7%
CC(C)CN(C(=O)COC(=O)CSc1ccccc1F)c1c(N)n(Cc2ccccc2)c(=O)[nH]c1=O,-3.5,11%,2,5,3,9%
COc1ccc(C(=S)N2CCOCC2)cc1OC(=O)c1ccc([N+](=O)[O-])cc1[N+](=O)[O-],?,-6%[15.4 µM],?,-24,-8,10%
CCCN(CCC)c1nc2c(C)cccn2c(=O)c1/C=C1/SC(=S)N(Cc2ccco2)C1=O,-6.5,21%,-2,28,-6,-8%
O=C(COC(=O)CCc1ccccc1)Nc1ccccc1OC(F)F,-2.6,-12%[15.4 µM],-4,9,12,-18%
CC(C)[C@H](NC(=O)c1ccco1)C(=O)OCC(=O)N1CCc2ccccc21,-2.6,19%,-19,3,-4,-10%
CC(=O)Nc1ccc(S(=O)(=O)NCCC(=O)NCCc2ccc(F)cc2)cc1,-1.7,10%,-4,0,5,7%
COc1ccccc1C(=O)NNC(=O)c1cccc(Cl)c1,-3.1,-48%[inhibitor],-6,-1,·,0%
COc1ccc2[nH]c3c(c2c1)CCN1C(=O)C(CC(=O)NCc2cccc(C(F)(F)F)c2)C[C@H](C(=O)N2CCCCC2)[C@@]31C (some centres not stated),0.4,·,·,-14,-18,-31%
CN(CCc1ccccc1)C(=O)c1cccc(NC(=O)Cc2cccc(NC(=O)C3CCCN(C(=O)C4CCCCC4)C3)c2)c1 (configuration not stated),-1.4,·,-3,1,1,-17%
COc1ccc(CCNC(=O)c2ccc(CN3CCC(Cc4ccccc4)CC3)cc2)cc1,0.4,14%,-15,-1,1,5%
CC(=O)c1cccc(NC(=O)C2=CC(c3cccs3)=NS(=O)(=O)N2C)c1,-0.2,-13%,-11,-11,-11,?
